Compound activity from PubChem.
YopH inh: blocks Yersinia enterocolitica YopH tyrosine phosphatase; fluorescence Ex485/Em525; actives 0.16% (n = 140,000); inhibition, %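 (about 10 µM by stock and volumes)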;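 active = inhibition of 50% or more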;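 also: controls were vehicle for no effect and minimum signal wells for full effect; inactives centre near -20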
RecA splice inh: inhibitors of M. tuberculosis RecA intein splicing; inhibition, %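 (about 9 µM by stock and volumes)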; cell-free RecA intein splicing, fluorescence; actives 0.75% (n = 290,000); in the data active = inhibition above about 30%; inconclusive = no clear call, values can overlap the other calls;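 also: 0% = vehicle wells and 100% = reference inhibitor control wells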
Target sequence (P9WHJ3 whole entry, looked up, canonical isoform): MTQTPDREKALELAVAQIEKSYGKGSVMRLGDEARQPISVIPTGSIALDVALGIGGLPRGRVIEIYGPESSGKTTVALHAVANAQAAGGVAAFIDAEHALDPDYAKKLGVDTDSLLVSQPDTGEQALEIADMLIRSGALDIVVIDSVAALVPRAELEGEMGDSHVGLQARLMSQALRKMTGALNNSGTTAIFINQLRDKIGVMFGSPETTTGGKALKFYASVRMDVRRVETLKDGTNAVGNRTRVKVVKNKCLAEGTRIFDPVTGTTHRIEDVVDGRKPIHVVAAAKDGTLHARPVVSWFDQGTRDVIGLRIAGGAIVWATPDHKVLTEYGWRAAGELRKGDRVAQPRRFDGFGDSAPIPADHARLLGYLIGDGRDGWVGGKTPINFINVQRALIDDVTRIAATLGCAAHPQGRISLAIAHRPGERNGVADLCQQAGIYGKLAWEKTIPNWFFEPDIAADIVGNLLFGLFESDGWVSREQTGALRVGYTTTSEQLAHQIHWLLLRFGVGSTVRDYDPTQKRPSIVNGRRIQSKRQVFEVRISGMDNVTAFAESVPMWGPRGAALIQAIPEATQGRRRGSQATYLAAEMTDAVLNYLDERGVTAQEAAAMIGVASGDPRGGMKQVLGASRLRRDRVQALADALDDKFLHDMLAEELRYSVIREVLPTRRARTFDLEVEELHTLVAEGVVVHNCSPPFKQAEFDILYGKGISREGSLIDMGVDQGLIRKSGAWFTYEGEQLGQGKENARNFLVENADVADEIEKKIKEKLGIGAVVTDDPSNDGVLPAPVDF
Mtb bLac sens: beta-lactam sensitization of Mtb H37Rv. M. tuberculosis H37Rv growth with meropenem, percent inhibition; hits of this screen are not shown here. inhibition, % at 25 µM. actives 0.27% (n = 330,000);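 active = about 74% or more and at least 40 points above the plate without the antibiotic, then above 30% in a dose series; inconclusive = first-round hits that could not be retested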;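 also: growth measured after seven days incubation then overnight dye step; 0% = bacteria only wells and 100% = bacteria with antibiotic; twin plates without the antibiotic show which effects depend on it; some results filed as inactive read as strong as hits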
Arbovirus inh: blocks arbovirus infection; arbovirus infection cell-based antiviral screen; inhibition, % at 10 µM; actives 0.37% (n = 200,000); AID 1251;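 active = inhibition from about 30%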;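 also: bluetongue infection of BSR cells; cell survival read as ATP light after 72 h; 0% = infected wells without compound and 100% = uninfected wells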
Mtb H37Rv: M. tuberculosis H37Rv growth inhibitors, H37Rv strain (AID 1626); M. tuberculosis H37Rv growth inhibition; higher % means a stronger effect; inhibition, % at 10 µM; hits with a dose series show IC50 in µM; actives 0.95% (n = 220,000);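 active = confirmed in a dose series; inconclusive = inhibition above 80% but not taken into the dose series; inactive = below 80% or under 30% at every dose of the series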;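 also: bacteria incubated seven days before Alamar blue readout; 0% = bacteria only wells and 100% = bacteria with antibiotic wells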
Arbovirus inh repeat: further read-out of Arbovirus inh, marked with its call; inhibition, %; measured here: 10K subset replicate screen; many hits read low in the repeat;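 first of two repeat runs on a subset; 0% = infected and 100% = uninfected wells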
Numbers without * were called inactive; ? = inconclusive; · = not tested or not shown; & = joins results of further samples.

SMILES	YopH inh	RecA splice inh	Mtb bLac sens	Arbovirus inh	Mtb H37Rv	others
CC(=O)C1=C(O)C(=O)N(c2ccc(O)cc2)C1c1ccc(F)cc1 (stereo not drawn)	·	3.9	-4	·	·
Nc1ccn([C@@H]2CS[C@H](CO)O2)c(=O)n1	·	7.1	1	4	-2%&0%
CC(C)(CNC(=O)c1cc2ccccc2o1)N1CCOCC1	-40	3.9	-4	4	1%
Cc1c(C)n(C)c2ccc(C(=O)NCc3cccs3)cc12	-33	8.5	6	-5	2%	Arbovirus inh repeat=0
COc1cccc(-n2sc3c(c2=S)-c2cc(OC)ccc2NC3(C)C)c1	-13	-5.7	-1	-14	11%
CNC(=O)C(NC(=O)Nc1ccc(C)cc1)C(C)(C)C (stereo not drawn)	·	-1.0	2	1	-1%
CCc1ccc(OCc2nnc(SCC(=O)N3CCOCC3)o2)cc1	·	4.9	12	8	5%
COC(=O)c1c(C)c2c(C)cc3ccccn3c-2c1C(=O)OC	-19	-5.8	0	2	3%
CCOc1cccc2cc(-c3cn4cc(C)ccc4n3)c(=O)oc12	-33	-6.4	10	-16	-4%
CN(CC(=O)Nc1c(Cl)cccc1Cl)C(=O)c1sccc1-c1ccccc1	·	-2.4	-7	·	·
O=C1c2cccnc2C(=O)N1Cc1ccco1	-3	-2.3	-8	5	-7%
C=CCn1c(SCC(=O)NC2CCCC2)nnc1-c1cccnc1	·	0.0	-11	·	·
COCCN1Cc2cccc(C(=O)Nc3ccc4c(c3)OCCO4)c2C1=O	0	-3.6	1	-10	3%
Cc1cccc(NC(=O)CSc2nc3ccc(N4C(=O)c5ccccc5C4=O)cc3s2)c1C	-28	0.0	46	-3	2%
Cc1ccc2c(C)c(C(=O)N(Cc3ccc(F)cc3)C3CCS(=O)(=O)C3)oc2c1 (stereo not drawn)	·	3.6	5	·	·
COc1ccc(F)cc1C(=O)C1CCCN(C(=O)c2cccc(N(C)C)c2)C1 (stereo not drawn)	·	-0.4	1	4	6%
CCOC(=O)c1cn(-c2ccc(F)c(F)c2)c2c(F)c(F)c(F)c(F)c2c1=O	-40	0.8	·	16	·
COc1ccc(Cl)cc1NC(=O)CN(C)C(=O)c1ccc(OCc2ccccc2)c(OC)c1	·	4.4	52	·	·
CC(C)(C)OC(=O)N1Cc2ccccc2C[C@H]1C(=O)NCC(=O)NC1CCCCC1	·	-1.4	-2	·	·
CC(=O)N1c2ccc(S(=O)(=O)N3CCC(C(=O)Nc4cccc(C(F)(F)F)c4)CC3)cc2CC1C (stereo not drawn)	·	2.4	93	·	·
COCC(=O)N(CCc1ccc(OC)c(OC)c1)Cc1nc2ccccc2c(=O)[nH]1	-57	1.3	-2	1	-3%
Cc1ccc(Cn2c(=O)cc(C(=O)O)c3ccccc32)cc1	-48	-1.9	0	-2	-8%
CCOC(=O)c1ccc(NC(=O)CSc2nnc(Cc3cccs3)n2C)cc1	8	-1.9	64	1	88%
CCCOc1ccc(CN(CCO)CCO)cc1[N+](=O)[O-]	-22	-2.7	0	0	-1%
CC(C)c1ccc(NC(=O)C(c2ccc3c(c2)OCO3)N2CCC3(CC2)OCCO3)cc1 (stereo not drawn)	-3	8.4	3	-1	6%

Structural class: those above with a tert-butyl group
SMILES	YopH inh	RecA splice inh	Mtb bLac sens	Arbovirus inh	Mtb H37Rv	others
CNC(=O)C(NC(=O)Nc1ccc(C)cc1)C(C)(C)C (stereo not drawn)	·	-1.0	2	1	-1%
CC(C)(C)OC(=O)N1Cc2ccccc2C[C@H]1C(=O)NCC(=O)NC1CCCCC1	·	-1.4	-2	·	·

Following part.
SMILES	YopH inh	RecA splice inh	Mtb bLac sens	Arbovirus inh	Mtb H37Rv	others
CCOc1ccc(N(CC(=O)NC2CCCCC2)C(=O)CCC(=O)Nc2nc(C)cs2)cc1	·	-1.8	13	·	·
Cc1cccc(-n2c(=O)c3c4c(sc3n3c(=S)[nH]nc23)CCC4)c1	·	·	·	34*	-2%
Cc1ccccc1-n1nnnc1SCCCC(=O)c1ccc(F)cc1	-21	1.5	-7	5	8%
CCOC(=O)c1sc(-c2cccc([N+](=O)[O-])c2)cc1N	·	2.6	3	-6	-9%
COc1ccc(OC)c(CCNC(=O)CCCC(=O)n2ncc3cc(C)ccc32)c1	·	0.8	-2	·	·
Nc1nnc2c(n1)CCCC2	52*	2.5	-14	-4	-3%
Cc1cccc(/C=C2\Sc3ccc(C(=O)N4CCC(C(N)=O)CC4)cc3N(C)C2=O)c1	·	3.0	22	·	·
CCN(CC)C(C(=O)Nc1ccc(C(C)C)cc1)c1ccc2c(c1)OCO2 (stereo not drawn)	-1	4.1	8	-5	-1%
CCc1ccc(OCC(=O)NC(=S)Nc2cccc(CO)c2)c(Br)c1	-26	0.3	-2	3	1%
O=C(Nc1cccc(S(=O)(=O)NC2=NCCC2)c1)c1ccccc1OC(F)F	·	-0.4	-3	·	·
Cc1ccc(O)c(NC(=O)C2CC(c3c(F)cccc3Cl)=NO2)c1 (stereo not drawn)	-25	-1.1	24	6	9%
O=C1CCC(C(=O)N2CCCCO2)CN1Cc1cccc(F)c1 (stereo not drawn)	·	1.1	3	·	·
Nc1ccc2c(c1)C/C(=C/c1ccco1)C2=O	-14	-432	4	-14	2%
CC[n+]1c(/C=C2\Sc3ccccc3N2C)ccc2cccc(C)c21	·	5.0	·	-35	1µM*
COc1ccccc1CNC(=O)CN1C(=O)NC(C)(c2ccc(C)cc2)C1=O (stereo not drawn)	·	-5.8	5	·	·
Cc1ccc(NC(=O)CSc2ccc(-c3cccnc3)nn2)c(C)c1	·	-1.7	-8	·	·
CCOC(=O)c1cnc(=O)[nH]c1C	·	-2.7	-3	·	3%
O=C(Nc1cccc2c1CCCC2)c1cc([N+](=O)[O-])ccc1Cl	-31	9.2	9	8	16%
Cc1ccc(S(=O)(=O)c2nc(S(C)(=O)=O)sc2N2CCC3(CC2)OCCO3)cc1	·	2.3	0	·	·
C/C(=N\NC(=O)c1ccc(CN2CCOCC2)cc1)c1ccc(NC(=O)c2ccccc2)cc1	·	-0.1	-2	-4	-5%
O=C(N=Nc1c(O)[nH]c2ccccc12)c1cc(NS(=O)(=O)c2cccs2)cc(NS(=O)(=O)c2cccs2)c1	·	-1.2	-6	29	1%
COCCNC(=O)c1ccc2c3n(nc2c1)-c1ccc(Cl)cc1CO3	·	-1.5	10	·	-13%
COC(=O)c1[nH]c2ccccc2c1NC(=O)CN1CCN(C(=O)c2ccco2)CC1	-45	4.4	6	4	-7%
CN(C)S(=O)(=O)c1ccc2nnn(O)c2c1	·	-1.0	6	-3	4%
COc1ccccc1/C=C(/C(=O)NCCCn1ccnc1)c1ccccc1	·	1.9	-4	2	2%

(next part)
SMILES	YopH inh	RecA splice inh	Mtb bLac sens	Arbovirus inh	Mtb H37Rv	others
CCN(C(=O)Cn1c(=O)oc2ccccc21)c1cccc(C)c1	·	-2.2	6	·	·
COc1ccccc1C1C(C(N)=O)=C(C)Nc2nc(CCCO)nn21 (stereo not drawn)	·	0.8	12	·	·
COCCCNC(=O)c1ccc2c(=O)n(Cc3ccc(OC)cc3)c(=O)[nH]c2c1	·	0.0	-7	11	-1%
CC(C)CCn1c(=O)c2ccccc2n2c(CN3C(=O)NC4(CCC(C)CC4)C3=O)nnc12 (stereo not drawn)	-37	-0.8	-9	-16	6%
CNc1ccccc1C(=O)OC(C)C(=O)Nc1ccc(Cl)cn1 (stereo not drawn)	·	-7.8	?	·	·
CCOC(=O)N1CCN(C(=O)C2CCN(S(=O)(=O)c3cc(Cl)ccc3OCC)CC2)CC1	·	-0.2	-10	·	·
CC(=O)Nc1c(NC(=O)CC#N)[nH]c2c(c1=O)c(=O)n(C)c(=O)n2C	·	1.1	-10	-3	-7%
COc1ccccc1C(=O)NC(=O)COC(=O)CNC(=O)c1ccc(Cl)c([N+](=O)[O-])c1	·	-2.8	-12	·	·
COc1cc(O)c(C(CCN2CCCC2)c2cc(OC)c(OC)c(OC)c2)c(OC)c1 (stereo not drawn)	·	-2.9	-17	·	-3%
CCOC(=O)N1CCN(c2ncnc3c2[nH]c2ccc(F)cc23)CC1	-18	-2.1	5	10	1%
CSc1nnc(-c2sc(-c3ccccc3)nc2C)n1C	-2	-5.2	0	6	-2%
COc1cc(C(C)=O)ccc1OCCCOc1cccc2cccnc12	·	3.3	3	·	·
O=C(NCCC1=CCCCC1)C1CCN(S(=O)(=O)N2CCCC2)CC1	·	0.6	4	5	-6%
C/C(CCC(=O)OC[C@H]1O[C@H](C#Cc2ccccc2)C=C[C@@H]1Oc1ccc(C)cc1)=N\OC[C@@H](O)[C@H]1O[C@@H]2OC(C)(C)O[C@@H]2[C@H]1O	-19	11	-10	7	·
O=c1c2[nH]c3ccccc3c2ncn1CCCn1ccnc1	-29	-1.5	-10	-7	-6%
COc1cc(/C=C2\SC(=S)N(NC(=O)c3cccc(O)c3)C2=O)ccc1O	·	-3.9	9	·	·
O=c1cc(-c2ccc(O)cc2)oc2c(C3OCC(O)C(O)C3O)c(O)c(C3OC(CO)C(O)C(O)C3O)c(O)c12 (stereo not drawn)	·	·	-5	·	-6%
COc1ccccc1/C=N/NC(=O)c1cccc2ccccc12	·	0.0	1	·	·
NC(=O)C1CCCN1S(=O)(=O)c1ccc2ccccc2c1 (stereo not drawn)	·	-2.1	-15	·	·
CCOC(=O)N1CCN(C(=O)CSc2nc(=O)n3ccccc3n2)CC1	·	-1.4	-3	·	·
Cc1csc2nc(CSc3nc4ccccc4o3)cn12	-6	·	-4	10	4%
CCOc1ccc(/C(=N\O)C(C)NO)cc1 (stereo not drawn)	-36	-8.0	6	8	-6%	Arbovirus inh repeat=-3
Cc1cc(NC(=O)CCC(=O)N(c2ccc(F)cc2)C(C(=O)NC2CCCC2)c2cccnc2)no1 (stereo not drawn)	·	-4.5	-3	·	·
CCOc1ccc(NC(=O)C(=O)NCCCn2ccnc2)cc1	4	-0.4	5	5	-6%
O=S(=O)(Nc1ccc(N2CCOCC2)cc1)c1c(F)cc(F)cc1Br	·	-0.3	4	·	·

Next section
SMILES	YopH inh	RecA splice inh	Mtb bLac sens	Arbovirus inh	Mtb H37Rv	others
CCc1ccccc1NC(=O)C1CCCN(c2ncccn2)C1 (stereo not drawn)	·	-3.8	-7	·	·
CC(=O)Nc1ccc(NC(=O)C(C)OC(=O)CCCN2C(=O)c3cccc4cccc(c34)C2=O)cc1 (stereo not drawn)	·	1.8	-17	·	·
CN1C(=O)C(CC(=O)Nc2ccc(F)cc2)N(NC(=O)c2cccc(F)c2)C1=S (stereo not drawn)	·	·	-3	·	-9%
COc1ccc(NC(C)C(=O)Nc2ccc(C(C)(C)C)cc2)cc1Cl (stereo not drawn)	-24	2.9	95	-25	·
O=C(COc1ccc(Br)cc1)N1CCN(Cc2ccncc2)CC1	-46	·	·	3	-9%
COc1ccc(OCC(=O)Nc2ccc(NC(=O)c3ccccc3Cl)c(OC)c2)cc1	·	-1.3	89	·	·
O=C(COC(=O)Cc1cccc(C(F)(F)F)c1)NC1CC1	·	-2.6	5	12	-2%
COc1ccccc1N1CCN(C(=O)c2ccc(S(=O)(=O)N3CCCCC3)cc2)CC1	-10	3.2	6	1	1%
CC(C(=O)Nc1sc2c(c1C(=O)NCc1ccco1)CCCC2)N1C(=O)c2ccccc2C1=O (stereo not drawn)	14	5.6	·	-18	-16%
Cc1ccc(SCCn2nc(C(=O)O)c3ccccc3c2=O)cc1	·	0.0	-6	20	2%
CCC1(c2ccc(F)cc2)NC(=O)N(CC(=O)N2CCc3ccccc3C2)C1=O (stereo not drawn)	·	2.4	-5	·	·
COc1ccc(NC(=O)NCc2ccccn2)cc1OC	-20	-0.1	0	6	67%

Compounds shown so far that have an aryl thioether with sulfur outside any ring, in the order listed:
SMILES	YopH inh	RecA splice inh	Mtb bLac sens	Arbovirus inh	Mtb H37Rv	others
CCc1ccc(OCc2nnc(SCC(=O)N3CCOCC3)o2)cc1	·	4.9	12	8	5%
C=CCn1c(SCC(=O)NC2CCCC2)nnc1-c1cccnc1	·	0.0	-11	·	·
Cc1cccc(NC(=O)CSc2nc3ccc(N4C(=O)c5ccccc5C4=O)cc3s2)c1C	-28	0.0	46	-3	2%
CCOC(=O)c1ccc(NC(=O)CSc2nnc(Cc3cccs3)n2C)cc1	8	-1.9	64	1	88%
Cc1ccccc1-n1nnnc1SCCCC(=O)c1ccc(F)cc1	-21	1.5	-7	5	8%
Cc1ccc(NC(=O)CSc2ccc(-c3cccnc3)nn2)c(C)c1	·	-1.7	-8	·	·
CSc1nnc(-c2sc(-c3ccccc3)nc2C)n1C	-2	-5.2	0	6	-2%
CCOC(=O)N1CCN(C(=O)CSc2nc(=O)n3ccccc3n2)CC1	·	-1.4	-3	·	·
Cc1csc2nc(CSc3nc4ccccc4o3)cn12	-6	·	-4	10	4%
Cc1ccc(SCCn2nc(C(=O)O)c3ccccc3c2=O)cc1	·	0.0	-6	20	2%

These rows are one share of the data; rates above refer to the full screens.
